High-throughput results deposited in PubChem by National Center for Advancing Translational Sciences (NCATS).
Menin-MLL FL inh = displaces fluorescein MLL peptide from human menin | FP activity change, % at 61.4 µM | Fluorescence polarization, fluorescein-MLL peptide displacement from menin | 290,000 tested, under 10 active; inconclusive = falling polarisation curve, or a change in total fluorescence; inactive = total fluorescence flat and polarisation flat or rising; no compound was filed as active; the % refers to the polarisation; negative = inhibition;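 further: % of control where 0% means no effect; inhibitors lower the polarisation; unlabelled MLL peptide was the positive control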
PINK1 expr mod = modulators of PINK1 expression; PINK1 immunofluorescence, high-content cytometry, 24 h; Potency, µM (top dose mostly 76.6 µM), inactives show at the highest dose activation (PINK1 increase), actives largely listed as activators; hit rate 0.2% among 410,000; active = well fitted activation curve with a large enough effect; inconclusive = small, poorly fitted or top-dose-only effect; inactive = flat fitted curve, though single readings scatter; cell line not stated here;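 further: potency means the concentration at half of the fitted maximal effect; % of control where 0% means no effect; nearly all actives have a fitted effect of over 65% in size; a mitochondrial uncoupler was the plate control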
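Cells are seeded, rested 12 hours, then given compound at five concentrations or DMSO for 24 hours. After fixation, blocking and antibody staining, PINK1 amount and mitochondrial localization are scored; CCCP serves as control.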
Sfp inh = Sfp phosphopantetheinyl transferase inhibition. Biochemical Sfp PPTase activity, qHTS. Potency, µM, for the others: max response, negative = inhibition, hits mostly inhibitors. Q9F4F7. hit rate 3.5% among 310,000; active means well fitted inhibition curve with a large enough effect; inconclusive means small, poorly fitted or top-dose-only effect, or another doubt; inactive means no such curve, though single readings can be large or run the other way;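 further: the enzyme is Sfp with the accession as filed and its product quenches rhodamine fluorescence; potency means the concentration at half of the fitted maximal effect; 0% = enzyme reaction without inhibitor and -100% = no enzyme wells; top concentration of the series not given in the record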
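Step 1, compound plus 15 nM Sfp-PPTase, 15 min, room temperature. Step 2, add rhodamine-CoA (5 uM) and BHQ-2-YbbR (12.5 uM). Step 3, read 525/598 nm fluorescence at 0 and 30 min.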
ClpP mod = qHTS Assay for Activators of ClpP; ATP-dependent Clp protease proteolytic subunit (Bacillus subtilis (strain 168)), P80244; purified B. subtilis ClpP, FRET peptide cleavage, 20 min; Potency, µM (top dose mostly 57.5 µM), for inactives: top-dose activity change, negative = active; hit rate 1.9% among 340,000; active = well fitted falling curve with a large enough effect; inconclusive = small, poorly fitted or top-dose-only effect; inactive = no such curve, though single readings can be large or run the other way; further: potency means the concentration at half of the fitted maximal effect; the source files actives as falling curves though it sought activators and does not explain the sign; nearly all actives have a fitted effect of over 65% in size; many hits overshoot -100%
Target sequence (P80244 whole entry, looked up): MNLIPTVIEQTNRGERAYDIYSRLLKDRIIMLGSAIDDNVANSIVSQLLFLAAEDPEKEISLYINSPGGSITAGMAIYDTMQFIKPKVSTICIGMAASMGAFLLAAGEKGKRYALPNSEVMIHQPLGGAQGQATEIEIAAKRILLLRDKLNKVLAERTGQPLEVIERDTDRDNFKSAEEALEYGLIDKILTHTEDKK
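ClpP 10 microg/mL final, pH 8 Tris/KCl buffer with BSA, glycerol, Tween-20; compound pinned in; FRET-FV substrate; RT 20 min; Ex320/Em430; ΔFRET vs ADEP 5.8 microM, DMSO, no enzyme.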
gsp antagonist = gsp mutant antagonism. AID 624288. Potency, µM (titrated, usually from 76.9 µM), without a hit: top-dose activity change, negative = inhibition, usual class: inhibitors. hit rate 0.4% among 340,000. gsp-mutant cells, cAMP HTRF, 30 min; control for the full effect not named in the record; active = falling curve of any shape with a large fitted effect; inconclusive = falling curve, mostly with a smaller effect; inactive = flat or rising curve; cell line not stated here;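 further: intracellular cAMP measured with PDE inhibitor Ro 20-1724 present during compound exposure; potency means the concentration at half of the fitted maximal effect; on the % scale 0 is the no-effect control and ±100 the full control effect; nearly all actives have a fitted effect of over 65% in size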
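G418-selected cells were plated in DMEM/10% FBS for 16-24 h at 37C, then treated with compounds plus the PDE inhibitor […] (300 uM solution added) for 30 min at 37C. Intracellular cAMP was measured by HTRF after 30 min lysis at room temperature.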
gsp ag = activates gsp, the McCune-Albright syndrome mutation; gsp mutant cells, cAMP HTRF, 30 min; control for the full effect not named in the record; Potency, µM (highest dose often 76.9 µM), without a hit: top-dose activation (cAMP increase), usual class: activators; hit rate 0.13% among 340,000; AID 624287; active = well fitted activation curve with a large enough effect; inconclusive = small, poorly fitted or top-dose-only effect, or another doubt; inactive = no such curve, though single readings can be large or run the other way; cell line not stated here;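 further: phosphodiesterase inhibitor Ro 20-1724 added with compounds to block cAMP breakdown; potency means the concentration at half of the fitted maximal effect; nearly all actives have a fitted effect of over 60% in size; about a fifth of the inactives were tested at one dose only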
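Cells stably selected in G418 were plated at 2000/well, grown 16-24 hr, then given compounds in DMSO with the PDE inhibitor […] (300 uM solution added) for 30 min at 37C; cAMP was read by HTRF.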
D2 ag = agonists of human D2 dopamine receptor (beta-arrestin); hit rate 0.084% among 360,000; P14416; activation, % (concentration not given with the values); DiscoveRx PathHunter D2 beta-arrestin, luminescence, 90 min; 100% = 57 uM dopamine signal; in the data active = activation above about 40%; inconclusive = about 15% to 40%; inactive = below about 15%; further: compound concentration not given in the record; the text of the record calls up to 30% inactive
Target sequence (P14416 whole entry, looked up): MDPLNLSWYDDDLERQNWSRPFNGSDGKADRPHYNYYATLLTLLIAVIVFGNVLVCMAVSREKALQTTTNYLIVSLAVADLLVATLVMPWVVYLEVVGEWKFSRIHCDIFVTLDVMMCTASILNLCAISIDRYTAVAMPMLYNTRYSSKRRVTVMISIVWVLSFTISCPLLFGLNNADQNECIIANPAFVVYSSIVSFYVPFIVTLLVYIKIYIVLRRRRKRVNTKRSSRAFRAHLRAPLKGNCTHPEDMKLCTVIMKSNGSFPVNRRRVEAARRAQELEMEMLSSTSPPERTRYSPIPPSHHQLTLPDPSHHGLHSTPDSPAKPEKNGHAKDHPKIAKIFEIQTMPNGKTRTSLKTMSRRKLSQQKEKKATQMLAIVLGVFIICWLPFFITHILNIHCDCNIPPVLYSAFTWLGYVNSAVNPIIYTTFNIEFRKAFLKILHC
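Agonist mode: compounds alone added to overnight-plated D2 PathHunter cells for 90 min at 37 C, with 57 uM final dopamine (EC100) defining full response. Beta-arrestin recruitment detected by chemiluminescent reagent, read after 1 h at ambient temperature.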
* hit, by the source's call; ? = inconclusive; nt = not tested or not shown; & = joins results of further samples; [ ] = remark or other dose. An unsorted share of the library, and some 5.1% of all compounds hit somewhere here.

nr | Molecule | Menin-MLL FL inh | PINK1 expr mod | Sfp inh | ClpP mod | D2 ag | gsp antagonist | gsp ag
1 | C=CCN(C(=O)CCC(=O)Nc1cc(C)on1)C(C(=O)NC1CCCC1)c1ccc(Cl)cc1 (centres undefined) | -0.2 | -1.4% | 15% | nt | -0.9 | -5% | 27%
2 | Fc1ccc(NC(=S)N2CCCN(c3ccc(C(F)(F)F)cn3)CC2)c(F)c1 | 2.8 | 19% | 11% | -15% | -2.3 | -22% | -15%
3 | COc1cc([N+](=O)[O-])cc(/C=N\NC(=O)C2COc3ccccc3O2)c1O (centres undefined) | 8.6 | -2.0% | 23% | 1.5% | -4.7 | -11% | 2%
4 | Cc1ccc2nc(Cl)c(/C=N/NC(=O)[C@H]3C[C@@H]3c3ccccc3)cc2c1 | 3.4 | 6.0% | -39% | nt | -4.7 | 2% | -1%[15.4 µM]
5 | CC1(C)CC(N2CCC(=O)N(C3CC(C)(C)NC(C)(C)C3)C2)CC(C)(C)N1 | 5.8 | -2.2% | 20% | -20% | -3.8 | 7% | 9%
6 | C/C(=N\NC(=O)c1cccnc1)c1c(O)cc(C)oc1=O | -3.4 | 5.4% | 9% | -1.8% | -7.4 | -8% | -2%
7 | CN(CC1CCN(CCc2cccc(C(F)(F)F)c2)CC1)C(=O)c1ccc(F)cc1 | -3.2 | -0.8% | 9% | nt | 5.3 | -4% | -32%[inhibitor]
8 | Cc1cc(C)n(-c2ccc(C(=O)OCC(=O)Nc3ccc(Cl)cc3[N+](=O)[O-])cc2)n1 | 1.1 | -0.2% | -9% | -0.5% | -3.5 | -5% | -11%
9 | CCOc1ccc(OCC(=O)OCC(=O)N(CC(C)C)c2c(N)n(Cc3ccccc3)c(=O)[nH]c2=O)cc1 | nt | 11% | nt | 0.7% | -1.1 | 8% | -19%
10 | Cc1cccc(C)c1NC(=O)c1cnccn1 | -5.7 | 0.2% | 13% | -1.9% | -2.0 | -4% | 2%
11 | CN(C)C(=O)c1ccc(-c2cc(NCc3ccccc3)ncn2)cc1 | 2.0 | -0.4% | 27% | nt | nt | nt | nt
12 | Cc1nn(Cc2ccc(Cl)cc2)c(C)c1NC(=O)c1cc(C(C)C)on1 | 0.0 | -2.2% | 20% | nt | -1.6 | -4% | -4%
13 | Cc1sc2ncnc(SCC(=O)N3CCC(c4noc5ccc(F)cc45)CC3)c2c1C | -0.9 | 0.6% | 0% | -2.4% | -0.2 | 4% | -70%
14 | COc1ccc(-n2nc(C(=O)NCC(=O)NC(C)C)c3ccccc3c2=O)cc1Cl | -0.8 | -0.3% | 5% | -6.4% | -6.2 | -7% | 14%
15 | COc1ccc(C2Nc3ccccc3C(=O)N2c2ccc(F)cc2)cc1Cn1nnc2ccccc21 (centres undefined) | 8.0 | 1.1% | 5% | 1.3% | -4.2 | -22% | -5%[15.4 µM]
16 | CC(C)CCNc1ncnc2c1nnn2Cc1ccccc1Cl | 3.0 | 19% | 8% | 10µM* | -1.8 | 2% | -47%
17 | COc1ccc(S(=O)(=O)N2CCCOC2CNC(=O)C(=O)NCCc2ccco2)cc1C (centres undefined) | nt | 9.0% | 12% | 0.0% | -3.2 | 10% | -14%
18 | COc1ccc(N/N=C(\C#N)C(=N)N2CCOCC2)cc1 | -0.5 | 3.1% | -8% | 2.5% | -6.1 | -25% | -2%
19 | CCOC(=O)c1cc(OC(=O)c2cccc([N+](=O)[O-])c2)n(-c2ccccc2)n1 | 0.6 | 3.7%[38.3 µM] | -1% | -10.0% | -3.4 | -19% | ?
20 | Nc1c(Cl)ncnc1NCc1ccccc1 | -2.1 | 0.6% | 17% | 0.9% | 3.6 | -9% | -2%
21 | O=C(COc1ccccc1F)NNC(=O)Cn1c(=O)cnc2ccccc21 | nt | -0.1% | nt | -1.0% | -2.3 | 4% | 0%
22 | NC1=NC[C@H](Cc2ccccc2)N1CCCCC1CCCCC1 | -3.2 | -2.2% | -15% | 3.5% | -3.4 | 9% | nt
23 | CC(=O)N1c2ccc(S(=O)(=O)N3CCC(C(=O)Nc4cccc(C)n4)CC3)cc2CC1C (centres undefined) | -0.4 | -0.3% | 27% | -3.3% | 3.4 | -31% | -40%
24 | O=C(CNC(=O)c1ccccc1F)N/N=C/c1cccs1 | -11 | -0.1% | -4% | -1.1% | -3.2 | -1% | 23%
25 | O=C(NC(Cc1ccccc1)C(=O)O)/C(=C/c1ccc(Br)cc1)NC(=O)c1ccc(Br)o1 (centres undefined) | nt | -1.0% | 22% | -6.0% | -2.8 | -3% | 13%
26 | CCc1ccc(N(C(=O)CNC(=O)c2ccco2)C(C(=O)NCC2CCCO2)c2ccccc2)cc1 (centres undefined) | -5.3 | 3.2% | 22% | nt | 0.1 | -13% | -18%
27 | Cc1ccc(-n2nc3c(=O)n(CCCC(=O)NCc4ccccc4F)nc(C)c3c2C)cc1 | nt | 1.7%&-1.1% | 14% | -2.7%&-0.7% | -8.3 | -19% | 55%
28 | N#Cc1cc([N+](=O)[O-])ccc1Oc1cccc(/C=N/NC(=O)c2cccc(Cl)c2)c1 | 4.1 | 1.9% | 20% | 0.6% | 6.6 | -1% | -26%
29 | O=C(Nc1nccs1)c1ncc(Cl)c(Cl)c1Cl | nt | -3.5% | -6% | nt | -0.6 | -12% | -20%
30 | Oc1ccc(/C=N/Nc2nn3cnnc3c3ccccc23)cc1 | -1.6 | 1.2% | 56µM* | 0.6% | 2.8 | 7% | ?
31 | OCC[C@H]1C[C@H](O)[C@@H](O)[C@]2(CCc3ccccc3CO2)O1 | nt | 0.3% | nt | -1.6% | -3.4 | 9% | nt
32 | CCOc1cc(C2NN=C(c3ccccc3)S2)ccc1OCc1ccccc1Cl (centres undefined) | -0.5 | 3.1% | -13% | 3.5µM* | 2.6 | -14% | ?
33 | CCOC(=O)C(=Cc1c[nH]c2ccc(S(=O)(=O)N(C)C)cc12)C(=O)OCC | 3.4 | -1.4% | 1% | nt | 0.0 | 12% | 11%[15.4 µM]
34 | CCCCN(C(=O)c1c(CC)noc1C)c1c(N)n(CCCC)c(=O)[nH]c1=O | nt | -1.3% | nt | nt | -9.6 | 8% | -16%[15.4 µM]
35 | CCCOc1cc(C)c(S(=O)(=O)N2CCN(C)CC2)cc1C | 3.7 | 3.9% | 2% | 1.8% | -1.9 | -4% | 4%
36 | Cc1ccc(C2=NN(S(C)(=O)=O)C(c3ccc4nccnc4c3)C2)cc1 (centres undefined) | 32[activator] | 0.8% | 11% | -0.6% | -0.4 | -1% | -43%[inhibitor]
37 | Cc1cc(C)c(CSc2nnnn2-c2ccc(C(=O)O)cc2)c(C)c1 | -1.0 | -2.8% | 6% | nt | 4.0 | -15% | -10%
38 | O=C(NCC1CCCO1)C1C2C=CC3(CN(Cc4cccs4)C(=O)C13)O2 (centres undefined) | 2.9 | 1.6%[38.3 µM] | 6% | -0.7% | -3.0 | 5% | 5%
39 | COc1ccccc1-c1cc(C(=O)Nc2sc3c(c2C#N)CCC(C)C3)c2ccccc2n1 (centres undefined) | 9.3 | 4.8% | ? | -2.6% | -5.8 | -4% | -17%
40 | Cc1cc(=S)[nH]c2c(C)cccc12 | 4.0 | -1.0% | 14% | -1.8% | -1.1 | 17% | 17%
41 | CC(=O)N1CC23C=CC(CC2CC12CCCCCC2)O3 (centres undefined) | 2.8 | 1.3% | 19% | nt | 11 | 0% | -1%[15.4 µM]
42 | COc1c2c(c(OC)c3ccccc13)[C@]1(OC2)O[C@H](CCO)C[C@H](O)[C@H]1O | nt | 0.7% | nt | 5.0% | -4.9 | nt | nt
43 | CCOC(=O)c1c(C)[nH]c(=S)c(C#N)c1-c1ccc(OC)cc1 | 9.6 | -1.1% | ? | 1.6% | -2.2 | -9% | 10%
44 | Cc1ccc(C(=O)N2CCN(S(=O)(=O)c3ccccc3C#N)CC2)cc1S(=O)(=O)N1CCOCC1 | nt | 0.1% | nt | -2.5% | -3.9 | -5% | -42%[inhibitor]
45 | CNC(=O)CC1C(=O)N(c2ccc(Cl)cc2)C(=S)N1CCc1ccc(OC)c(OC)c1 (centres undefined) | 4.2 | ? | 14% | nt | 7.2 | -11% | 9%
46 | NNC(=O)CN1C(c2ccccc2)=Nc2ccc(Br)cc2C1c1ccccc1 (centres undefined) | -2.6 | 3.0% | -5% | 0.4% | -5.8 | 5% | -6%[15.4 µM]
47 | CCN1CCN(CCCNC(=O)c2cc3sccc3n2CC)CC1 | -0.2 | 1.2% | 7% | -7.3% | -3.5 | -5% | -38%
48 | COC(=O)c1c(NC(=O)Cc2cccs2)sc2c1CCCC2 | 4.1 | 2.9% | -15% | -18% | -3.4 | -7% | -51%[inhibitor]
49 | CCOC(=O)Cc1nc(-c2ccccc2)n[nH]1 | -1.2 | 4.9% | -5% | nt | -2.7 | 5% | 3%
50 | CC1(C(=O)O)CCCN(C(=O)c2ccc(F)cc2Cl)C1 (centres undefined) | nt | 0.0% | nt | -0.3% | -1.9 | nt | nt
51 | COC(=O)c1ccc(C2c3[nH]c4ccccc4c3C[C@H]3C(=O)N(C)CC(=O)N23)cc1 (some centres undefined) | 2.9 | 0.6% | 7% | nt | -0.7 | -2% | 5%
52 | Cc1cccc(NC(=O)c2nc[nH]c2C(=O)Nc2cc(Br)ccc2F)c1 | nt | 8.7% | nt | -8.4% | -8.0 | nt | ?
53 | CCOc1ccc(S(=O)(=O)NCCC(=O)NCC2CCCO2)cc1 (centres undefined) | nt | -0.6% | nt | -0.3% | -5.4 | 3% | -5%
